MT1-MMP promoter = MT1-MMP gene expression reporter suppression – cell-based, luciferase reporter, luminescence (AID 618); MT1-MMP promoter luciferase reporter cells, luminescence; calls from a first round at 10 µM; hits with a dose series show EC50 in µM; 87,000 compounds, 0.62% hits;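 active means over half of the reporter light lost at 10 µM or EC50 under 50 µM; inactive means the rest and hits that failed the dose series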;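 further: actives suppress MT1-MMP promoter-driven transcription so potencies describe inhibitors; HT1080 fibrosarcoma cells; overnight exposure; toxic or luciferase-blocking compounds were not removed from the actives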
* hit, by the source's call; i = inactive. Some of the compounds tested (hit frequency here may not be typical).

SMILES	MT1-MMP promoter
CC1(C)CC(=O)c2c(oc3cc4c(cc23)OCO4)C1	i
CCCCN(C)CCn1c(=S)[nH]c2ncccc2c1=O	i
CC(C)CCNC(=O)CC1C(=O)N(Cc2ccccc2)C(C)c2nc3ccccc3n21 (configuration not stated)	i
C=CCc1cccc2cc(C(=O)NCc3ccc(C(=O)OCC)o3)c(=O)oc12	i
Cc1c(OCc2ccccc2)c(=O)ccn1Cc1ccc(Cl)cc1	i
COC(=O)c1cn(NC(=O)c2cc(OC)cc(OC)c2)c(=O)c2ccccc12	i
CCOC(=O)c1ccc(NC(=O)CNC(=O)C23CC4CC(CC(C4)C2)C3)cc1	i
CCC1=C2CC[C@H]3C(=O)NC(=O)[C@H]3[C@H]2[C@@]2(Cc3ccccc3)C(=NCC3CC3)OC(=O)N2C1=O	i
O=S(=O)(c1ccc2oc3ccc(S(=O)(=O)N4CCCCC4)cc3c2c1)N1CCCCC1	i
Cc1cc(C(=O)N[C@H](c2ccccc2)[C@@]2(C)C[C@@H]2[C@@H](C)C(=O)Nc2ccc3ccccc3c2)n(C)n1	i
O=C(Cn1nnc(-c2ccccc2)n1)NCc1ccco1	i
[O-]/[N+](=C/c1ccc(F)cc1)c1ccc(Cl)cc1	i

Random excerpt: 5 entries already listed
SMILES	MT1-MMP promoter
O=S(=O)(c1ccc2oc3ccc(S(=O)(=O)N4CCCCC4)cc3c2c1)N1CCCCC1	i
CC(C)CCNC(=O)CC1C(=O)N(Cc2ccccc2)C(C)c2nc3ccccc3n21 (configuration not stated)	i
O=C(Cn1nnc(-c2ccccc2)n1)NCc1ccco1	i
CC1(C)CC(=O)c2c(oc3cc4c(cc23)OCO4)C1	i
COC(=O)c1cn(NC(=O)c2cc(OC)cc(OC)c2)c(=O)c2ccccc12	i

Other results follow:
SMILES	MT1-MMP promoter
CN1CCN(C(=O)c2ccc3c(=O)n(Cc4ccco4)c(=S)[nH]c3c2)CC1	i
C/C(=C\c1ccccc1)CN1CCN(c2ccccc2F)CC1	i
CC(C)(C)Nc1nc2nonc2nc1NC(C)(C)C	i
COC(=O)[C@@H]1C[C@H]2CC[C@H](O)C[C@H]2N1Cc1ccc(C(C)(C)C)cc1	i
CCN(CC)CCCNc1nc2cc(OC)c(OC)cc2c2nc(-c3cccnc3)nn12	i
Cc1nc2ncnn2c(C)c1CCC(=O)N1CC(C)CC(C)C1 (configuration not stated)	i
CC1CCN(CC(C)CNC(=O)c2cc(-c3ccccn3)nc3ccccc23)CC1 (configuration not stated)	i
CCOc1ccc(CCNC(=O)C2CCC(=O)N2CCc2ccccc2)cc1OCC (configuration not stated)	i
CCCC/C=C/C(NC(=O)c1ccc(-c2ccccc2)cc1)c1ccccc1 (configuration not stated)	i
N/C(Cc1cccs1)=N\OC(=O)COc1ccccc1	i
CCC1=C2CC[C@H]3C(=O)NC(=O)[C@H]3[C@H]2[C@@]2(C)C(=NCC(=O)OC)OC(=O)N2C1=O	i
CCCCN(CCCC)c1nc(OC)nc(-n2nnc(C(C)=O)c2C)n1	i
Cc1sc2c(c1C)c(=O)n(-c1cccc(C(F)(F)F)c1)c(=O)n2CC(=O)NCc1ccco1	i
Cc1ccnc(NS(=O)(=O)Cc2ccccc2)c1	i
CCNC(=S)N1CCN(CCN=CC2=C(O)CC(c3cccs3)CC2=O)CC1 (configuration not stated)	i
COc1ccc(NC(=O)C(c2ccc(C)cc2)N(C)C(=O)CNC(C)=O)cc1 (configuration not stated)	i
c1cnc(NC2CCCCCC2)nc1	i
CNC(=O)[C@H](C)/C=C(\I)C(NC(=O)OCc1ccccc1)c1ccc(C(=O)OC)cc1 (some centres not stated)	i
CC(C)(C)c1ccc(S(=O)(=O)Nc2cccnc2)cc1	i
O=C(CN1CCN(Cc2ccccc2Cl)C1=O)NCc1ccco1	i
O=C(c1ccc(Br)s1)N1CCN(C/C=C/c2ccccc2)CC1	i
FC(F)(F)c1ccc(C2[C@H]3CN(Cc4cccnc4)[C@H](c4ccccc4)C34CC2(c2cccnc2)C4)cc1 (some centres not stated)	i
CC(C)(C)N1CC2(c3ccccc3)CN(C(C)(C)C)CC(c3ccccc3)(C1)C2=O	i
CC(=O)Nc1cc(C(=O)N2CCCC2)ccc1S(=O)(=O)c1ccc(Cl)cc1	i
CCCNS(=O)(=O)c1ccc(OCC(=O)OC)cc1	i
C[C@]1(C(=O)NCCN2CCOCC2)C=C[C@@H](Cc2ccccc2)N1C(=O)c1ccccc1	i
CCC/S(CC1CC1(Cl)Cl)=N\S(=O)(=O)c1ccc(C)cc1 (configuration not stated)	i
COC(=O)[C@@H]1C[C@H]2CC[C@H](O)C[C@H]2N1Cc1ccc(N2CCN(C)CC2)cc1	i
Cc1ccc2oc(C(=O)Nc3nnc(C)s3)c(C)c2c1	i
CCC(C)NC(=O)CSc1nc2c(sc3ccccc32)c(=O)n1CCCN1CCOCC1 (configuration not stated)	i
Cc1ccc(NC(=O)CSCCc2ccccn2)nc1	i
CC(C)CNC(=O)CC(c1ccccc1)c1c(O)ccc2ccccc12 (configuration not stated)	i
CC(NC(=O)CSc1nnc(CC(=O)Nc2ccc(Cl)c(Cl)c2)n1C)c1ccccc1 (configuration not stated)	i
Cc1cc2nc(N)sc2cc1C	i
FC(F)(F)c1ccc(CN2C[C@@H]3C(c4ccc(Cl)nc4)C4(c5ccccc5)CC3(C4)[C@H]2c2ccccc2)cc1 (some centres not stated)	i
Cc1ccc(C)c(OCC(=O)Nc2cccc(C(=O)O)c2)c1C	i
Cc1ccccc1NC(=O)NCCCN1CCN(c2ccccc2)CC1	i
Cc1ccc(NC(=O)CNc2ccc(OC(C)C)cc2)cc1	i
Cc1ccc2c(Cl)c(C(=O)Nc3cc(C)on3)sc2c1	i
CCOc1ccc(C2=Cc3cc(OC)c(OC)cc3C(=C(Cl)Cl)O2)cc1	i
CN(C)CCN(Cc1ccccc1)c1nccc(N(C)C)c1C#N	i
O=C(CCC1CCCC1)NCc1cccs1	i
COc1ccc(CCNC(=O)c2nnn(-c3cc(C)cc(C)c3)c2N)cc1OC	i
O=C(Oc1ccc(Br)cc1)c1cncc(Br)c1	i
CC(C)Cn1c2ccccc2c2cc(C(=O)O)ccc21	i
CC(C)Oc1ccc(CNC(=S)N/N=C/c2ccc([N+](=O)[O-])cc2)cc1	i
COc1ccc(/C(N)=N/OC(=O)c2cccc([N+](=O)[O-])c2)cc1OC	i
CSc1ccccc1NC(=O)Nc1cccc(Cl)c1Cl	i
CCOc1ccc(NC(=O)CSc2nc3ccccc3c(=O)n2CCCC(=O)N2CCCC2)cc1	i
Cc1ccc(-n2c(N)c(C(=O)NCc3cccnc3)sc2=S)cc1	i
COC(=O)c1ccc(NC(=O)CCS(=O)(=O)c2ccc(Br)s2)cc1	i
CC(C)CC(=O)NCc1ccc(F)cc1	i
N#Cc1ccccc1NC(=O)Nc1ccc(Cl)cc1	i
CC1CCCN(C(=S)NCCc2ccccc2)C1 (configuration not stated)	i
O=C(CCc1ccccc1)Nc1ccccc1F	i
COC(=O)c1cn(NC(=O)c2cccc(OC)c2)c(=O)c2ccccc12	i
CN(C)c1nccc(N(Cc2ccccc2)Cc2ccccc2)c1C#N	i
CS(=O)(=O)NCCSCc1c(Cl)cccc1Cl	i
COc1ccc(/C(N)=N/OC(=O)CSc2ccc(C)cc2)cc1OC	i
C=CCn1c(SCC(=O)NCc2ccc3c(c2)OCO3)nc2scc(-c3ccccc3)c2c1=O	i

Part of the list above, in CSV form:
SMILES,MT1-MMP promoter
CS(=O)(=O)NCCSCc1c(Cl)cccc1Cl,i
CC1CCCN(C(=S)NCCc2ccccc2)C1 (configuration not stated),i

Continued.
SMILES	MT1-MMP promoter
O=C(COc1ccc2c(c1)C(=O)CC1(CCCCC1)O2)NCc1ccccc1	i
CC(=O)N1[C@H](C)C=C[C@]1(Cc1ccccc1)C(=O)O	i
CCc1nnc(SCCSc2nnc(CC)n2N)n1N	i
CC1=C(C(=O)OCc2ccccc2)C(c2ccc(Cl)cc2)NC(=O)N1CCCCCC(=O)O (configuration not stated)	i
Cc1nn(-c2cc(N3CCNCC3)ccc2[N+](=O)[O-])c(=O)c2ccccc12	i
COc1ccc(C(=O)c2ccc(Cl)cc2Cl)cc1	i
CCC/C=C(\CCC)C(NC(=O)CCc1ccccc1)c1ccc(C(F)(F)F)cc1 (configuration not stated)	i
Cc1ccc(C(=O)N2CCN(Cc3ccc4c(c3)OCO4)CC2)o1	i
CCCCOCCCNC(=O)c1ccc(OC)cc1	i
CCOC(=O)NC(NC(=S)Nc1ccccc1[N+](=O)[O-])C(Cl)(Cl)Cl (configuration not stated)	i
COc1ccc(C(=O)CSc2nnc(-c3cccs3)n2-c2ccccc2)cc1	i
CCC1=NC(c2ccccc2)N(O)C1(C)C (configuration not stated)	i
COC(=O)[C@@]1(Cc2ccc(F)cc2)[C@H]2c3cc(C(=O)N4CCCC4)n(CCc4ccccn4)c3C[C@H]2CN1C(=O)c1ccccc1	i
CC(=O)c1ccc2c(c1)c1ccccc1n2CC(C)C	i
CCOC(=O)COc1ccc(S(=O)(=O)c2ccc(OCC(=O)OCC)cc2)cc1	i
C=CCn1c(SCC(=O)O)nnc1-c1cccs1	i
Clc1ccc(-c2nc3cnccn3c2NC2CCCC2)cc1	i
Cc1ccccc1S(=O)(=O)Cc1ccc(C(=O)NCc2cccs2)o1	i
CCOC(=O)c1c(C)sc2c1N(C(=O)CN1CCOCC1)c1cc(Cl)ccc1S2	i
CCC1=C(OC(=O)N(CC)CC)N2C(=O)OC(=NCC3CC3)[C@]2(C)[C@H]2C1=CC[C@H]1C(=O)NC(=O)[C@H]12	i
CCOc1cc2[nH]c(=S)n(CCN3CCCCC3C)c(=O)c2cc1OCC (configuration not stated)	i
CC(/C=C/c1ccc(C)o1)=C\C(=O)O	i
N#Cc1c(NC(=O)CSc2ncn[nH]2)sc2c1CCCC2	0.73µM*
O=c1[nH]c2ccc(Cl)cc2c(-c2ccccc2)c1N1CCN(CCO)CC1	i
O=c1c(CN2CCN(c3cccc(Cl)c3)CC2)coc2c(Cl)cc(Cl)cc12	i
O=C(C#Cc1ccccc1)c1cccc([N+](=O)[O-])c1	i
O=C(NC(c1ccccc1)c1ccccc1)c1ccc(Br)o1	i
CC(=O)NCCn1c(SCc2ccccc2C)nc2ccccc2c1=O	i
COC(=O)[C@@]1(Cc2ccccc2)C=C[C@@H](C)N1C(=O)c1ccccc1	i
COc1ccccc1N1CCN(C(=O)CSc2ccccc2)CC1	i
COC(=O)c1ccc(C(/C=C/[C@@H](C)C(=O)NCCN2CCCC2)NC(=O)OCc2ccccc2)cc1 (some centres not stated)	i
CN(C)CCNC(=O)c1cc(Br)ccc1Cl	i
O=C(C1CCCN(S(=O)(=O)Cc2ccccc2)C1)N1CCC(Cc2ccccc2)CC1 (configuration not stated)	i
CCC(CC)C(=O)Nc1ccc(Cl)c(Cl)c1	i
CCCC/C=C/C(NC(=O)c1ccc(C(=O)OC)cc1)c1ccccc1 (configuration not stated)	i
COc1ccc(CSc2nnc(Cc3sc(-c4ccccc4)nc3-c3ccccc3)o2)cc1	i

Continued, starting with the last 4 of the part before.
SMILES	MT1-MMP promoter
O=C(C1CCCN(S(=O)(=O)Cc2ccccc2)C1)N1CCC(Cc2ccccc2)CC1 (configuration not stated)	i
CCC(CC)C(=O)Nc1ccc(Cl)c(Cl)c1	i
CCCC/C=C/C(NC(=O)c1ccc(C(=O)OC)cc1)c1ccccc1 (configuration not stated)	i
COc1ccc(CSc2nnc(Cc3sc(-c4ccccc4)nc3-c3ccccc3)o2)cc1	i
CCC/C=C(\CCC)C(NC(=O)c1cccs1)c1ccc(C(F)(F)F)cc1 (configuration not stated)	i
CCOC(=O)c1cc(-c2ccc(C)cc2)n(CCC(=O)NC(C)CC)c1C (configuration not stated)	i
O=C(O)CN1CCCC1=Nc1ccccc1	i
CCC/C=C(\CCC)C(NS(=O)(=O)c1ccc(C(F)(F)F)cc1)c1ccc(C(=O)OC)cc1 (configuration not stated)	i
COC(=O)[C@@]1(Cc2ccc(F)cc2)[C@H]2c3cc(C(=O)N4CCCC4)n(CCO)c3C[C@H]2CN1C(=O)c1ccccc1	i
CC(C)(C)c1ccc(C(=O)Nn2c(CCC(=O)O)ccc2-c2cccs2)cc1	i
CCOC(=O)c1nc(Nc2ccccc2)c2ccccc2n1	i
CC(Cc1ccccc1)C(=O)N1CCN(C)CC1 (configuration not stated)	i
CCOC(=O)C1=C(C)N(CCCC(=O)O)C(=O)NC1c1ccccc1 (configuration not stated)	i
CCOC(=O)c1c(-c2ccccc2)n(C)c2ccc(O)cc12	i
COC(=O)[C@@H]1C[C@@]2(O)[C@@H](O)[C@@H](O)[C@@H](O)C[C@H]2N1Cc1ccc(C)s1	i
CCOC(=O)N1CCN(C(=O)C2CCN(S(=O)(=O)c3ccccc3)CC2)CC1	i
COC(=O)c1cc(NC(=O)Nc2cc(OC)ccc2OC)cc(C(=O)OC)c1	i
N#Cc1ccc(C23CC4(C2)[C@H](CN(CC2CCCCC2)[C@@H]4c2ccccc2)C3c2ccc(Cl)nc2)cc1 (some centres not stated)	i
O=c1/c(=C/c2ccco2)sc2n1CN(c1cccc(Br)c1)CN=2	i
CC(Oc1ccc(Cl)cc1)C(=O)NCCCn1ccnc1 (configuration not stated)	i
COC(=O)[C@@H]1C[C@@]2(O)[C@H](O)[C@H](O)[C@H](O)C[C@H]2N1Cc1cccc2ccccc12	i
Cn1c(SCC(=O)N2CCOCC2)nc(O)cc1=O	i
Cc1cc(C)n(C(=O)c2ccc(C)c(S(=O)(=O)N3CCCCC3)c2)n1	i
CNC(=O)[C@H](C)[C@H]1C[C@]1(C)[C@H](NC(=O)OCc1ccccc1)c1ccccc1	i
CC(=O)c1cnc2cc(-c3ccc(Cl)cc3)nn2c1C	i
CCN(CC)CCNc1nc2cc(OC)c(OC)cc2c2nc(-c3ccccc3)nn12	i
COc1ccc(COC(=O)Nc2cc3c(C(F)(F)F)nn(C)c3s2)cc1	i
CCOC(=O)c1cccnc1SCC(=O)NCc1ccccc1	i
